Assay outcomes (PubChem BioAssay)
VDR inh – vitamin D3 receptor (human) inhibition; P11473; VDR-SRC2-3 peptide fluorescence polarization, 2 h; 400,000 tested, 0.93% active; Potency, µM, without a hit: max response, negative = inhibition, usual class: inhibitors; active means well fitted inhibition curve with a large enough effect; inconclusive means small, poorly fitted or top-dose-only effect, or another doubt; inactive means no such curve, though single readings can be large or run the other way; further: series mostly up to about 120 µM
Target sequence (P11473 whole entry, looked up): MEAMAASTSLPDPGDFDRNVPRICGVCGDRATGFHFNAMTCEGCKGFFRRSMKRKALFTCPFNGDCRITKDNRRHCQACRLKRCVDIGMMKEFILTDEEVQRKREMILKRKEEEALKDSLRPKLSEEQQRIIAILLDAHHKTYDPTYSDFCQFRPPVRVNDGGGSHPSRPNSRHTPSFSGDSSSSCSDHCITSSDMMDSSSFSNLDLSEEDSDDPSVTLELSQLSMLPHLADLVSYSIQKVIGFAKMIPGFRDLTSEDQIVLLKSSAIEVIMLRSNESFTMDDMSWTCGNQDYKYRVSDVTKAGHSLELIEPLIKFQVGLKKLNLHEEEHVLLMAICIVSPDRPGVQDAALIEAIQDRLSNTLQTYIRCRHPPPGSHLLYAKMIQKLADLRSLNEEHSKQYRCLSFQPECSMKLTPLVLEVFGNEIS
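Inhibition of the VDR/SRC2-3 peptide interaction is quantified by fluorescence polarization. Compounds (23 nl, pintool) incubate with the reagents for 2 hours at ambient room temperature.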
Starred values were filed as active, the others as inactive; ? = inconclusive; & = joins results of further samples; [ ] = another dose, or the depositor's remark. On the % scale 0 is the no-effect control and ±100 the full control effect; potency means the concentration at half of the fitted maximal effect. A portion of the library; the hit share may differ from the screen's.

SMILES | VDR inh
Cc1ccc2[nH]c3c(=O)n(CC(=O)N(C)Cc4ccccc4)ncc3c2c1 | 20%
CC(C)NC(=O)c1ccc(CSCc2ccccc2Cl)o1 | -14%
CCNC(=O)n1nccc1C(C)Oc1ccc(Cl)cc1 (stereo not given) | 7%
CCCNC(=O)Cc1ccsc1 | 8%
COCCNC(=O)CSc1ccc(C)cc1 | -13%
O=C(CN(C(=O)CCC(=O)Nc1nccs1)c1cccc(F)c1)NCc1ccccc1 | 8%
CCc1ccc(NC(=O)c2cc(C)no2)cc1 | 1%
O=C(CC1N=C2c3ccccc3N=C(SCc3cccc(Cl)c3)N2C1=O)NCc1ccc2c(c1)OCO2 (stereo not given) | 13%
CCCC(=O)Nc1c2c(nn1-c1ccc(F)cc1)CS(=O)(=O)C2 | -20%
C=CCn1c(SCc2cc(C(=O)OC)c(C)o2)nnc1-c1ccncc1 | 0%
CCOc1cc(C(=O)Nc2ccc(S(=O)(=O)Nc3cc(C)on3)cc2)cc(OCC)c1OCC | -12%
CCOc1ccc(NC(=O)CN2CCN(CC(=O)Nc3ccc(N(C)C)cc3)CC2)cc1 | -1%
Nc1cccc(-c2nnc3n2CCCCC3)c1 | -17%
Cc1cc2oc(C(=O)Nc3ccc(S(=O)(=O)Nc4nccs4)cc3)cc(=O)c2cc1Cl | 9%
CCn1c(SCc2nc3cc(OC)c(OC)cc3c(=O)[nH]2)nnc1-c1ccncc1 | -5%
CCc1nnc(NC(=O)/C=C/c2ccc(C)o2)s1 | 21%
Fc1ccc(NC(=S)N2CCN(c3ccccn3)CC2)cc1Cl | -2%
C[C@@H](C(=O)OCC(=O)c1ccc(F)c(F)c1)N1C(=O)C2CCCCC2C1=O (stereo not given in full) | 12%
CC(=O)c1ccc(C(=O)Nc2ccc3c(c2)C(=O)NC3=O)cc1 | -20%
Cc1c(-c2n[nH]c(=S)n2-c2ccc(Br)cc2)nnn1-c1ccc(Cl)cc1 | 12%
CCCCNC(=O)N1CCN(c2ccnc3cc(Cl)ccc23)CC1 | 2%
O=C(CCCN1C(=O)/C(=C/c2cccs2)SC1=S)Nc1ccc(C(=O)O)cc1 | -1%
COc1ccc(Cc2nnc(NC(=O)c3cc(OC)c(OC)c(OC)c3)s2)cc1OC | -11%
CCc1nn(CC(=O)N2CCN(c3cccc(C)c3C)CC2)c(=O)c2cc3occc3n12 | 3%
CCCOc1ccc(CCC(=O)O)cc1 | 1%

Next part, overlapping the part above by 4 compounds.
SMILES | VDR inh
O=C(CCCN1C(=O)/C(=C/c2cccs2)SC1=S)Nc1ccc(C(=O)O)cc1 | -1%
COc1ccc(Cc2nnc(NC(=O)c3cc(OC)c(OC)c(OC)c3)s2)cc1OC | -11%
CCc1nn(CC(=O)N2CCN(c3cccc(C)c3C)CC2)c(=O)c2cc3occc3n12 | 3%
CCCOc1ccc(CCC(=O)O)cc1 | 1%
O=C(Nc1nonc1-c1ccc(F)cc1)c1ccco1 | 1%
COc1cccc(NC(=O)CN2CCN(CC(=O)Nc3ccccc3Cl)CC2)c1 | 0%
CS(=O)(=O)N(CC(=O)Nc1cccc(Cl)c1Cl)c1ccccc1 | -10%
Cc1ccc(-c2csc(NC(=O)c3ccc(S(=O)(=O)N4CCc5ccccc54)cc3)n2)cc1 | -7%
COc1ccc(NC(=O)c2ccc(S(=O)(=O)N3CCCC3)cc2)cc1OC | 0%
COc1ccc(-n2c(COc3ccc(Cl)cc3)nnc2SCc2ccc(C#N)cc2)cc1 | 2%
O=C(Nc1cc(S(=O)(=O)N2CCOCC2)ccc1N1CCCC1)C1CC1 | -8%
CCOc1ccc(NC(=O)COC(=O)c2ccc(S(=O)(=O)N3CCOCC3)cc2)cc1 | -1%
Cc1c(N2C(=O)SC(CC(=O)O)C2=O)c(=O)n(-c2ccccc2)n1C (stereo not given) | -3%
CSc1ccc(NC(=O)Nc2ccc(C(=O)NCC(=O)O)cc2)cc1 | -7%
COc1cccc(NC(=O)c2cnc(SC)nc2C)c1 | 35%[activator]
O=C(Nc1nnc(SCc2ccc(F)cc2)s1)c1ccc2c(c1)C(=O)N(c1ccccc1Cl)C2=O | 10%
CC(=O)NC1=NN(C(C)=O)C(c2sccc2C)S1 (stereo not given) | -5%
Cc1cc(Cl)c(OCCCNC2CCCC2)c(Br)c1 | 8%
O=C(NNC(=O)c1nc(Cl)ccc1Cl)c1ccc(F)cc1 | 20%
COc1ccc(C2CC(=O)Nc3n[nH]c(-c4ccccc4)c32)cc1OC (stereo not given) | -1%
CCSc1nnc(NC(=O)C(NC(=O)c2ccc(Cl)cc2)C(C)C)s1 (stereo not given) | -22%
COCCCC1CCN(C(=O)c2cc(COc3ccc(C)nc3)on2)CC1 | 13%
CCSc1cc(N2CCCC2)nc(-c2ccc(C)cc2)n1 | -10%
CC(Oc1ccc(F)cc1)C(=O)Nc1ccccc1C(=O)N1CCCCC1 (stereo not given) | 17%
O=c1c2cc(Br)ccc2[nH]c(=S)n1Cc1ccccn1 | -10%
COc1ccccc1NC(=O)c1cc2c(CO)cnc(C)c2oc1=Nc1cccc(C(N)=O)c1 | -9%
N=C1N(/N=C/c2ccccc2)C(=Nc2ccccc2)C(=S)N1c1ccccc1 | -6%
COc1ccccc1Cc1nc2ccccc2nc1SCC(=O)Nc1c(C)cccc1C | -16%
COc1ccccc1NC(=O)C(NC(=O)c1ccc(C)cc1)c1ccccc1 (stereo not given) | -7%

Single entries from above:
VDR inh with CCOc1ccc(NC(=O)COC(=O)c2ccc(S(=O)(=O)N3CCOCC3)cc2)cc1 : -1%
VDR inh with COc1ccccc1NC(=O)c1cc2c(CO)cnc(C)c2oc1=Nc1cccc(C(N)=O)c1 : -9%
VDR inh with Cc1cc(Cl)c(OCCCNC2CCCC2)c(Br)c1 : 8%
VDR inh with CCSc1nnc(NC(=O)C(NC(=O)c2ccc(Cl)cc2)C(C)C)s1 (stereo not given) : -22%
VDR inh with CC(=O)NC1=NN(C(C)=O)C(c2sccc2C)S1 (stereo not given) : -5%

Continued.
SMILES | VDR inh
O=C(CN1CCN(S(=O)(=O)c2ccccc2)CC1)Nc1ccc2c(c1)OCO2 | 7%
COc1ccccc1N1CCN(C(=O)CN2C(=O)COc3ccc(S(=O)(=O)N4CCCCCC4)cc32)CC1 | 13%
CCN1C(=O)CC(c2ccccc2)N(C2CCCC2)c2nc(Nc3ccc(C(=O)NC4CCN(C)CC4)cc3OC)ncc21 (stereo not given) | -9%
O=C(NCc1ccccc1)c1c[nH]c2ccccc2c1=O | 1%
CN(C)/N=C/c1cc([N+](=O)[O-])ccc1O | -4%
Cc1cccc(N(C(=O)c2snc(C(N)=O)c2N)C(C)C(=O)NCC2CCCO2)c1 (stereo not given) | 8%
CC1CCCCN1C(=O)CCNS(=O)(=O)c1ccc2c(c1)c(=O)n(C)c(=O)n2C (stereo not given) | 20%
Cc1noc(C)c1C(=O)N1CCC2(CCCN(Cc3nccs3)C2)CC1 | -5%
O=C(c1ccccn1)N1CCN(c2cccc(C(F)(F)F)c2)CC1 | 7%
CN(CC(=O)N1CCCCC1)S(=O)(=O)c1cccc2cccnc12 | -1%
O=C1OCCC1Sc1ncnc2sccc12 (stereo not given) | -10%
O=C(COC(=O)C1=COCCO1)NC(=O)c1ccc(OC(F)F)cc1 | -6%
CCCc1nn2c(=O)cc(COC(=O)c3ccc(NC(=O)C4CCCCC4)cc3)nc2s1 | 24%
O=C(Cn1c(-c2cscn2)nc2ccccc21)Nc1ccccc1F | 13%
C=CCOCCN(CCOCC=C)C1=NS(=O)(=O)c2ccccc21 | -17%
O=C(CSc1ccc2nnc(-c3ccccn3)n2n1)N1CCOCC1 | 2%
NC(=O)Cc1nc(-c2ccc(Br)cc2)cs1 | 5%
Cc1cnc(C(=O)OCC(=O)N(Cc2ccccc2)C(C)(C)C)cn1 | -9%
Fc1ccc(N2CCN(c3ncnc4[nH]ncc34)CC2)cc1 | 5%
CCOC(=O)C(C)(C)C(=O)C(C)(C)C(O)c1ccccn1 (stereo not given) | 11%
Cc1ccc(OCc2nnc(SC3CCc4ccccc4C3=O)n2C)cc1 (stereo not given) | -16%
CC1=C(C(=O)Nc2ccccc2)C(c2ccc(N(C)C)cc2)NC(=O)N1 (stereo not given) | -6%
Cc1cccn2c(CN3CCCC(c4ccccc4)C3)c(C(=O)N3CCOCC3)nc12 (stereo not given) | -7%
CCOC(=O)C1(Cc2ccccc2C(F)(F)F)CCN(C2CCSC2)CC1 (stereo not given) | -9%
O=C(Nc1ccc(O)c(-c2nc3ccccc3o2)c1)c1sc2ccccc2c1Cl | 8%
Going on with the list.
SMILES | VDR inh
COc1ccc(OC)c(S(=O)(=O)NCCS(=O)(=O)N2CCN(c3ccccc3)CC2)c1 | -5%&-3%
COc1cccc(-c2ncc3ccccc3c2COC(=O)CCCC(=O)O)c1 | -19%
Cc1ccc2c(c1)N(CC(=O)Nc1ccccc1F)C(=O)C(C)O2 (stereo not given) | -2%
O=C(Cc1n[nH]c(=O)[nH]c1=O)N/N=C/c1cccc(Cl)c1 | -5%
CN(C)c1ccc(/C=[N+](\[O-])C2SC(=S)N(C)C2(C)C)cc1 (stereo not given) | 17%
CCN(CC)S(=O)(=O)c1ccc2oc(SCC3CN=C(c4ccc(OC)cc4)S3)nc2c1 (stereo not given) | -27%
CCCCOc1ccc(C(CC(=O)NC)C(=O)O)cc1 (stereo not given) | -5%
Cc1cccc(C(=O)OCC(=O)N2CCCCCC2)c1C | 10%
Cc1[nH]c(C)c(Cl)c(=O)c1Cl | -2%
Cc1cccc(Nc2ccc([N+](=O)[O-])cc2C(=O)O)c1 | -4%
CCCSc1nsc(NC(=O)c2cccnc2OCC)n1 | 5%
C[C@@H]1COC(=O)[C@H](Cc2ccc(F)cc2)CC/C=C/C[C@@H](CC(=O)N[C@H](CO)Cc2ccccc2)C(=O)N1 | -16%
Clc1ccc(-n2ncc3c(NCc4ccccn4)ncnc32)cc1 | -4%
O=C(CCc1c[nH]c2ccccc12)Nc1ccc(S(=O)(=O)Nc2ncccn2)cc1 | 6%
CC1(C)Cc2ccccc2/C(=C/C(=O)c2ccccc2)N1 | -9%
Cc1ccc(-c2cc(C(=O)NCc3ccccn3)no2)cc1 | -12%
COc1cc(/C=C(\C#N)C(=O)c2ccc(O)c(O)c2)cc(I)c1O | ?
CN(C)c1ccc(/C=N/n2cnn(Cc3ccccc3Cl)c2=S)cc1 | -14%
COc1cc(NC(=S)N2CCCCC2C)cc(OC)c1OC (stereo not given) | 16%
COc1ccc(C2CC(=O)C=C(NCc3ccccc3)C2)cc1 (stereo not given) | 0%
CC1=CN(S(=O)(=O)c2ccc(C)cc2)C[C@@H]2c3ccccc3N(S(=O)(=O)c3ccc(C)cc3)[C@H]12 | 7%
O=C(CCN1N=C(c2ccccc2)CCC1=O)NCC1COc2ccccc2O1 (stereo not given) | 0%
COc1cc2c(cc1OC)C(COc1cc(C)cc(C)c1)N(C(C)=O)CC2 (stereo not given) | 8%
COc1ccc(C(=O)N2CCN(c3ncccn3)CC2)cc1S(=O)(=O)N1CCOCC1 | -16%
CCC1(c2ccc(Cl)cc2)NC(=O)N(CC(=O)NCc2ccc(F)cc2)C1=O (stereo not given) | 0%
Further records follow.
SMILES | VDR inh
CC(=O)NC(Cc1ccccc1)C(=O)N1CCN(C(=O)c2ccco2)CC1 (stereo not given) | 21%
CCc1ccc(CNC(=O)C2CCCN(c3nn4cc(-c5ccc(F)cc5)nc4s3)C2)cc1 (stereo not given) | -1%
CC(Oc1ccc(Br)cc1)C(=O)NCc1ccccn1 (stereo not given) | 31%[activator]
O=[N+]([O-])/C(C(Cl)=C(Cl)Cl)=C(\Sc1ccccc1)N1CCCCC1 | -29%
Cc1c(C=O)c2ccccc2n1CC(=O)NC(C)c1ccccc1 (stereo not given) | -3%
Cc1ccc(Cl)cc1-n1c(=O)c2sc3ccccc3c2n(CC(=O)NC2CCCCC2)c1=O | 17%
CNC(=O)c1c(NC(=O)c2ccc(S(=O)(=O)N3CCCCC3C)cc2)sc2c1CCC2 (stereo not given) | -9%
Cc1ccc(C(=O)N2CCc3ccccc32)cc1 | 5%
Cc1cccc(NC(=O)NC(C)CCc2ccccc2)c1 (stereo not given) | 7%
CC(=O)N1CCC(C(=O)NCCOc2ccc(C)cc2)CC1 | 9%
Cc1cc(C)n(C(=O)CCCn2cc([N+](=O)[O-])cn2)n1 | 2%
Cc1cc(C(=O)N/N=C/c2cccc([N+](=O)[O-])c2)c2ccccc2n1 | -7%
c1ccc(CNc2ncnc3c2ncn3Cc2ccccc2)cc1 | -18%
COc1ccc2c(c1)[nH]c1c(=O)n(/N=C/c3ccc(OC)c(COc4ccccn4)c3)cnc12 | -20%
CCOc1ccc(S(=O)(=O)NCc2ccc3c(c2)OCO3)cc1C | -11%
O=C(/C=C/c1ccccc1)NNC(=O)c1cccs1 | -12%
O=C(COc1ccc(Br)cc1CNCCc1ccccc1)NCc1ccccc1 | -22%
O=C(CSc1nnnn1-c1cccnc1)Nc1ccccc1F | -6%
O=C(NCC1CCCO1)c1ccc(S(=O)(=O)Nc2ccc(F)cc2)cc1 (stereo not given) | -5%

An excerpt of these results, as labelled records.
O=C(NCC1CCCO1)c1ccc(S(=O)(=O)Nc2ccc(F)cc2)cc1 (stereo not given)
  VDR inh: -5%

CNC(=O)c1c(NC(=O)c2ccc(S(=O)(=O)N3CCCCC3C)cc2)sc2c1CCC2 (stereo not given)
  VDR inh: -9%

CC(Oc1ccc(Br)cc1)C(=O)NCc1ccccn1 (stereo not given)
  VDR inh: 31%[activator]

O=[N+]([O-])/C(C(Cl)=C(Cl)Cl)=C(\Sc1ccccc1)N1CCCCC1
  VDR inh: -29%
